Ecoli growth – blocks Escherichia coli growth. OD600, 23 h; hits give low values. OD600 absorbance (no concentration beside the values). 330,000 compounds, 0.21% hits. AID 1053175;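 active = OD600 absorbance below the run mean of sample wells minus 3.6 SD, in any replicate, cut at about 0.56 in these data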;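 also: stock transfer was 300 nL into about 60 µL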
UCH37 DUB inh – inhibitors of human deubiquitinating enzyme UCH37. AID 588478. 330,000 compounds, 0.33% hits. inhibition, % (no concentration beside the values). purified proteasome/UCH37, Ub-AMC cleavage fluorescence. Q9Y5K5;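 active = mean of two replicates above 20%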;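 also: 0% = compound-free wells with enzyme and 100% = wells lacking proteasome; stock transfer was 100 nL into about 20 µL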
Target sequence (Q9Y5K5 whole entry, looked up): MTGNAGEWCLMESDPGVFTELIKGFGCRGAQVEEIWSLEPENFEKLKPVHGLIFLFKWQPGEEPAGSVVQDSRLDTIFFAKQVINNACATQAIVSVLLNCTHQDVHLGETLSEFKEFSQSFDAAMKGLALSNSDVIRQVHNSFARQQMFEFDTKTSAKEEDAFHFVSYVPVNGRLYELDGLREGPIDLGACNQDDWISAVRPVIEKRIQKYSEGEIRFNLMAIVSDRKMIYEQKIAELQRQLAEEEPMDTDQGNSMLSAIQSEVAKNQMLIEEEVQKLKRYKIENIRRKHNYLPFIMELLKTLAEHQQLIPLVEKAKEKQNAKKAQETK
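System: Proteasome-associated human UCH37 deubiquitinase; Input: 0.15 nM proteasome in added enzyme buffer; Also added: Ub-AMC substrate from 1 µM stock; Incubation: 30 min compound-proteasome preincubation then 25 min substrate reaction, room temperature; Detection: fluorescence, ex 355 nm, em 460 nm; Read-out: % inhibition of Ub-AMC cleavage fluorescence; Benchmarks: no-proteasome and no-compound wells.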
Numbers without * were called inactive. A portion of the library. The share of hits here may be higher or lower than overall.

Molecule	Ecoli growth	UCH37 DUB inh
CCOC(=O)C(=NNc1ccc(C(C)=O)cc1)c1csc(Nc2ccccc2)n1	0.723	-1.3
CC(=NNC(=O)c1cc(-c2ccccc2)nc2c(Cl)cccc12)c1cccnc1	0.68	-3.8
CC(CC(=O)Nc1ccc(N(C)C)cc1)=NNC(=O)C(=O)NCc1ccccc1	0.669	2.4
CC(C)(C)c1cc(C=NO)cc(C(C)(C)C)c1O	0.666	4.9
CCOC(=O)C1=C(N)n2c(sc(=Cc3ccncc3)c2=O)=C(C(=O)OCC)C1c1ccncc1 (stereo not given)	0.694	5.5
CN(C)Cc1c(C(=O)NN=Cc2ccc(OCc3ccc(F)cc3)cc2)nnn1-c1nonc1N	0.725	2.3
C=CCN1C(=O)C(Cc2ccc(C)cc2)SC1=NN=Cc1ccco1 (stereo not given)	0.731	2.3
COC(C(=O)NN=C(C)CC(=O)Nc1ccc(Cl)cc1C)c1ccccc1 (stereo not given)	0.641	0.8
CC(=O)N(N=C1C(=O)Nc2ccccc21)c1ccccc1	0.657	2.7
COc1ccc(C(C)=NNc2nncc3ccccc23)cc1	0.695	3.2
Cc1cc([N+](=O)[O-])nn1CC(=O)NN=Cc1ccc(O)cc1O	0.677	8.5
CN(C)c1ccc(C=NN2C(=S)SC(C)(C)C2N(O)C(=O)Nc2ccc([N+](=O)[O-])cc2)cc1 (stereo not given)	0.745	7.9
ON=C1CC(O)Cc2nonc21 (stereo not given)	0.703	0.0
O=C(NN=Cc1c(Cl)[nH]c2ccccc12)c1ccc2c(c1)OCCO2	0.639	0.8
Cc1ccsc1C=NNc1ncnc2nc[nH]c12	0.644	15.1
O=c1c2ccccc2nc(NN=Cc2ccccc2)n1O	0.67	6.2
Cc1nc2ccccc2c(=O)n1N=Cc1ccc2ccccc2c1O	0.672	4.2
CON=CCC(=O)c1cnc(-c2ccc(Cl)cc2)s1	0.649	1.1
COC(=O)NN=Cc1ccccc1OCCOc1ccc(OC)cc1	0.727	0.9
COc1ccccc1/C=C/C=NNC(=O)CN1CCN(Cc2ccccc2)CC1	0.699	1.2

Copied from the entries so far, three compounds:
Molecule	Ecoli growth	UCH37 DUB inh
CCOC(=O)C(=NNc1ccc(C(C)=O)cc1)c1csc(Nc2ccccc2)n1	0.723	-1.3
CC(=NNC(=O)c1cc(-c2ccccc2)nc2c(Cl)cccc12)c1cccnc1	0.68	-3.8
CC(CC(=O)Nc1ccc(N(C)C)cc1)=NNC(=O)C(=O)NCc1ccccc1	0.669	2.4

Going on with the list.
Molecule	Ecoli growth	UCH37 DUB inh
O=C(NN=Cc1ccccc1O)c1ccncc1	0.655	1.2
COc1cc(C=NNC(=O)CC2(C)OCCCO2)ccc1OCc1ccc(Cl)cc1Cl	0.679	6.0
Cc1onc(-c2ccccc2)c1-c1csc(NN=Cc2ccccc2Cl)n1	0.666	-37.4
CC(=NNC(=O)c1ccc2ccccc2c1)c1cccnc1	0.599	1.3
COc1ccc(OC)c(C=NNC(=O)C(=O)NCc2cccnc2)c1	0.674	0.7
Cc1csc(=NC(=S)Nc2ccccc2)n1C	0.699	5.3
Cc1cc(C)n(CC(=O)NN=Cc2c[nH]c3ccccc23)n1	0.659	4.6
O=C(C=NO)NCc1cccnc1	0.657	4.3
Cc1ccc(C=NN(C)C2=NS(=O)(=O)c3ccccc32)o1	0.697	-86.2
COc1ccccc1NC(=O)CC(C)=NNC(=O)COc1c(Br)cc(Br)cc1OC	0.685	2.5
CCOc1cc(C=NN=C(N)c2nonc2N)cc(Br)c1OCc1cccc2ccccc12	0.732	5.3
CC(=NOCc1ccc(Br)cc1)c1ccccn1	0.691	0.4
Cc1nnc(NN=Cc2cccc(C(F)(F)F)c2)n1N	0.655	6.7
COc1cc(C=NNc2nncn2N)ccc1OC(C)=O	0.628	4.4
COc1cc(OC)c(C=NNC(N)=S)cc1Br	0.744	-0.4
COc1cc(C=NNC(=O)c2cccnc2)ccc1OCC(=O)Nc1ccccc1Cl	0.607	-180.9
COc1ccc(NC(=O)CC(C)=NNC(=O)c2ccccn2)c(OC)c1	0.652	1.8
CC(=NNC(=S)NCc1ccccc1)c1ccc(C)o1	0.709	1.4
CC(C)c1ccc(C=NNC(=O)c2cc(-c3cccc([N+](=O)[O-])c3)n[nH]2)cc1	0.727	7.6
Cc1cc(C=NNC(=O)c2ccccc2F)c(C)n1-c1ccccc1	0.662	4.1
COc1ccc(C=NNC(=O)c2ccccc2[N+](=O)[O-])cc1CN1CCc2cc(OC)c(OC)cc2C1C (stereo not given)	0.712	1.6
COc1cc(C=NNC(=S)NCc2ccco2)cc(OC)c1OC	0.68	5.5
COc1ccc(C=Nn2cnnc2)cc1Oc1nc(Cl)ncc1F	0.751	3.7
NC(Cc1ccc([N+](=O)[O-])cc1)=NOC(=O)COc1cccc2ccccc12	0.752	2.5
COc1cc(C=NNC(=O)c2ccncc2)ccc1Oc1ccc([N+](=O)[O-])cn1	0.721	7.1
C(=Nn1c2ccccc2c2ccccc21)c1ccccc1	0.66	6.2
CC(C)(C)NC(=O)CCN(N=Cc1ccccc1F)C1=NS(=O)(=O)c2ccccc21	0.627	-11.2
CC(CC(=O)NCc1ccco1)=NNC(=O)c1ccc([N+](=O)[O-])cc1Cl	0.66	4.0
Cc1n[nH]c(=O)nc1NN=Cc1ccco1	0.681	16.6
CCc1n[nH]c(=S)n1N=Cc1cccc2ccccc12	0.673	3.1
O=C(Cn1nnc(-c2ccccc2)n1)NN=Cc1ccco1	0.691	-0.7
O=C1c2ccccc2C(=O)N1N=Cc1ccc(Oc2ccc([N+](=O)[O-])cn2)cc1	0.698	2.8
Cn1cccc1C=NNC(=O)c1ccc(OC(F)(F)C(F)F)cc1	0.683	7.7
NC(Cc1ccc([N+](=O)[O-])cc1)=NOC(=O)COc1ccccc1Cl	0.673	0.5
CC(=NNc1ccc(F)cc1F)c1ccccc1O	0.649	-0.7
COc1cccc(N/C(=N\C(=S)Nc2ccc(C)cc2C)Nc2nc(C)cc(C)n2)c1	0.756	0.1
CC(=NNC(=O)c1nnn(-c2nonc2N)c1CN(C)c1ccccc1)c1ccccn1	0.729	6.3
S=c1[nH]nc(COc2ccccc2)n1N=Cc1c(Cl)cccc1Cl	0.706	3.9
COc1ccc(C2C(C(C)=O)=C(C)N=c3sc(=Cc4ccc5c(c4)OCO5)c(=O)n32)cc1 (stereo not given)	0.733	-1.6
Cc1ccc(NC(=O)CCC(=O)NN=Cc2cccnc2)cc1	0.635	1.1
O=C(CNC(=O)c1ccccc1Br)NN=Cc1ccccc1O	0.686	-27.7
O=C(NN=Cc1ccc(F)cc1)c1c(O)c2ccccc2[nH]c1=O	0.691	-1.5
ON=C(Cc1ccccn1)c1ccccc1	0.709	6.7
CC1(C)CC(=O)C(=NNc2ccc(Cl)cc2)CO1	0.686	6.3
CN1CCN(N=Cc2ccc(-c3ccc([N+](=O)[O-])cc3)o2)CC1	0.634	12.2
CCC(CC(C)(C)c1ccccc1)=NO	0.701	3.8
CN(N=Cc1cccnc1)c1cnc2ccccc2n1	0.665	-17.4
NC(N)=NN=Cc1ccc(Cl)c([N+](=O)[O-])c1	0.664	6.0
CCOC(=O)CC(C)=NNC(=O)COc1ccccc1C	0.705	7.5
Cn1cccc1C=NNC(=O)CSc1nc2ccccc2[nH]1	0.65	4.9
CC(=O)C(=NNc1ccccc1)Sc1nnc(-c2ccccc2)n1-c1ccccc1	0.709	2.5
Cc1ccc(C=NNC(=O)CSc2nnc(-c3ccc(Cl)cc3)n2-c2ccccc2)o1	0.735	8.3
CCCOc1ccc(Cc2nn3c(=O)c(=Cc4ccco4)sc3nc2=O)cc1	0.71	10.5
O=C(O)CCC(=NNC(=O)CNC(=O)Cc1ccccc1)c1ccccc1	0.685	2.4
CC(C)(C)c1cnnn1-c1ccc(C=NNc2ccc([N+](=O)[O-])cc2)cc1	0.736	3.4
C/C(C=NNC(=O)c1cccnc1)=C\c1ccccc1	0.709	8.4
CC(=NNc1nc(N)cc(Cl)n1)c1ccc(Cl)c(Cl)c1	0.663	-5.0
Cc1ccc(NC(=O)CC2SC(=Nc3nccs3)N(C)C2=O)c(C)c1 (stereo not given)	0.708	2.3
C/C(C=Nn1c(COc2ccccc2)n[nH]c1=S)=C\c1ccco1	0.68	2.5
Cc1ccsc1C=Nn1c(-c2cc(-c3ccccc3)n[nH]2)n[nH]c1=S	0.732	4.1

Following part
Molecule	Ecoli growth	UCH37 DUB inh
CC(=O)NN=Cc1cc([N+](=O)[O-])ccc1OCCOc1ccccc1	0.685	2.6
COc1cc(C=NNC(=O)C(=O)NCC2CCCO2)ccc1OCC(=O)N1CCOCC1 (stereo not given)	0.658	8.4
O=C(NN=Cc1cc(Br)c(O)c(Br)c1)c1cccc(C(F)(F)F)c1	0.669	2.4
CC(=NNC(=O)CN1CCN(Cc2ccc(C)cc2)CC1)c1ccncc1	0.676	0.0
C=CCNC(=S)N=c1ccccn1CCC	0.679	6.1
O=C(CSc1nc2ccccc2[nH]1)NN=Cc1ccco1	0.664	4.6
O=C(Cc1nnc(NC(=O)c2ccccc2)s1)NN=Cc1cccc(O)c1	0.615	3.5
C=CCc1ccccc1OCC(=O)NN=Cc1ccc(OC(C)=O)cc1OC(C)=O	0.689	-23.3
NN=C(c1ccccc1)c1cc(Br)ccc1N	0.69	4.9
O=C(NN=Cc1ccc(O)cc1)c1csc2ccccc12	0.623	3.7
CCC(=O)ON=C(N)c1ccc(Oc2cc(C)c(Cl)c(C)c2)c([N+](=O)[O-])c1	0.639	3.6
O=C(NN=Cc1cn(-c2ccccc2)nc1-c1ccc(F)cc1)c1ccc2c(c1)OCO2	0.722	3.2
Cc1ccc(C=NNC(=O)CN2CCN(S(=O)(=O)c3ccc(Br)cc3)CC2)s1	0.693	5.0
COc1cc([N+](=O)[O-])ccc1-c1ccc(C=Nn2cnnc2)o1	0.703	5.4
Cc1ncc(CO)c(C=NNC(=O)c2cc(Br)ccc2O)c1O	0.681	-5.6
CC(CC(=O)Nc1ccccn1)=NNC(=O)C(=O)Nc1cccc(C)c1	0.676	1.0
O=C(NN=Cc1ccc(Cl)c(Cl)c1)c1ccc2nc[nH]c2c1	0.702	-10.3
Clc1cccc(Cl)c1CON=Cc1c(-c2ccccc2)nc2n1CCS2	0.751	-3.2
CCn1cc(C=NNC(=O)c2ccccc2Cl)cn1	0.703	-0.8
O=C(Oc1ccc(C=NNc2nc(N3CCCCC3)nc(N3CCCCC3)n2)cc1)c1ccco1	0.696	0.7
O=C(NN=Cc1ccc(Sc2nc3ccccc3s2)c([N+](=O)[O-])c1)c1ccccn1	0.686	1.8
CCOc1ccc(C=NNC(=O)c2cc(-c3ccco3)nc3ccccc23)cc1	0.728	-191.2
Oc1ccc(Cl)cc1C=Nc1nc2ccccc2[nH]1	0.671	1.8
COc1ccc(C=Nn2cnn(Cc3ccccc3Cl)c2=S)cc1	0.665	1.9
CC(CC(=O)NCc1ccccc1)=NNC(N)=S	0.658	1.5
N#Cc1c(N=Cc2ccco2)oc(-c2ccccc2)c1-c1ccccc1	0.685	2.1
Cc1ccccc1CSCC(=O)NN=Cc1cccs1	0.627	3.4
CCOC(=O)NN=Cc1ccc([N+](=O)[O-])s1	0.667	6.7
O=C1CCS/C(=N\N=Cc2ccc(Cl)cc2Cl)N1	0.652	4.0
CCOC(=O)C1=c2sc(=Cc3ccncc3)c(=O)n2C(N)=C(C(=O)OC)C1c1ccncc1 (stereo not given)	0.65	6.4
COc1ccc(C=NNC(=O)c2cc(C3CC3)[nH]n2)cc1OC	0.625	3.5
Cc1nc2ccccc2n1C(=NS(=O)(=O)c1ccc(Br)cc1)c1ccccc1	0.737	2.0
Cc1ccc(C(=NNc2ncnc3ccccc23)C(=O)O)cc1	0.714	14.8
CC(=NNC(=O)c1nnn(-c2nonc2N)c1COc1ccccc1)c1ccccc1	0.747	2.5
COc1ccc(C=NNc2nc(-c3cccc(S(=O)(=O)N4CCCC4)c3)cs2)cc1OC	0.709	-21.8
COc1ccccc1C(=O)NCC(=O)NN=Cc1ccncc1	0.684	30.1*
Cc1ccc(C(=O)NN=Cc2cccn2C)cn1	0.71	14.6
Cc1cccc(C=NNC(=O)c2ccc(NC(=O)c3ccccc3C)cc2)n1	0.627	4.2
CCN(CC)c1ccc(C=NNC(=O)c2ccco2)c(O)c1	0.62	-28.4

Seven of the entries above in order of the Ecoli growth value, rising:
Molecule	Ecoli growth	UCH37 DUB inh
CCN(CC)c1ccc(C=NNC(=O)c2ccco2)c(O)c1	0.62	-28.4
CCC(=O)ON=C(N)c1ccc(Oc2cc(C)c(Cl)c(C)c2)c([N+](=O)[O-])c1	0.639	3.6
COc1cc(C=NNC(=O)C(=O)NCC2CCCO2)ccc1OCC(=O)N1CCOCC1 (stereo not given)	0.658	8.4
CCOC(=O)NN=Cc1ccc([N+](=O)[O-])s1	0.667	6.7
O=C(O)CCC(=NNC(=O)CNC(=O)Cc1ccccc1)c1ccccc1	0.685	2.4
NN=C(c1ccccc1)c1cc(Br)ccc1N	0.69	4.9
Cc1ccc(C(=NNc2ncnc3ccccc23)C(=O)O)cc1	0.714	14.8

Screening results (PubChem BioAssay)
